NPYLR7 agonist – activates Aedes aegypti NPYLR7 receptor. HEK293T NPYLR7/Galpha15, GCaMP6s calcium fluorescence. activation, % at 10 µM. hit rate 0.15% among 270,000. AID 1259423; in the data active means activation above about 40%;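 further: 0% = vehicle and 100% = reference agonist at the receptor; some compounds past the cut are filed as inactive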
NPYLR7 agonist max-min – further read-out of NPYLR7 agonist, marked with its call; activation, %; measured here: Max-Min RFU normalised activation; some inactives read as strong as hits;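 span of the calcium signal over five minutes; 0% = vehicle and 100% = native peptide agonist; compound fluorescence can raise it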
An asterisk follows results filed as active; & = joins results of further samples.

SMILES	NPYLR7 agonist	NPYLR7 agonist max-min
O=C(c1ccc(O)cn1)N1CCc2[nH]nc(-c3ccc(-c4ccccc4)cc3)c2C1	3	1
C=CCN(Cc1ccc(C)s1)C(=O)[C@@H](N)Cc1cscn1	-6	-8
Cc1ccccc1CSCC(=O)Nc1c[nH]c(=O)[nH]c1=O	2	-2
COc1ccccc1-c1[nH]nc2nccc(-c3ccc(C#N)cc3)c12	3	2
CN(C)CCN1C(=O)C(O)=C(C(=O)c2ccco2)C1c1ccccc1F (centres undefined)	13	16
O=C(NNC(=O)C1CCCCC1)c1ccc(=O)n(Cc2ccc(Cl)cc2)c1	-7	-16
O=C(c1ccccc1)N(Cc1cccnc1)c1nc2cc3c(cc2s1)OCCO3	-4	5
CN(C(=O)COC(=O)c1ccc(Cl)cc1)C1CCS(=O)(=O)C1 (centres undefined)	5	2
CCOC(=O)C1=C(C)N=c2sc(=Cc3sccc3C)c(=O)n2C1c1cccs1 (centres undefined)	2	-3
CCn1nccc1NC(=O)c1ccc(C(F)(F)F)cc1	1	-4
CC(C)CN=C1S[C@H]2[C@H]([C@@H](O)[C@H](O)C[C@@H]2C(N)=O)N1Cc1ccc(F)cc1	-8	-15
COc1ccc(CN(C)C(=O)CC2CCc3ccccc32)cc1O (centres undefined)	0	-2
CNC(=O)NC(=O)CN1CCN(Cc2cccs2)CC1	0	4
Cc1noc(C(C)N2CCN(CCOC3CCCCC3C)CC2)n1 (centres undefined)	15	16
Cc1ccc(S(=O)(=O)N2CCOCC2)cc1C(=O)Nc1ccc(Cl)cn1	-10	-19
O=C1NC2(CCCC2)C(=O)N1CCC(=O)N1CCSc2ccccc21	-2&7	-1&5
CCOc1c(Br)cc(CNCc2nncn2C(C)C)cc1OC	7	2
CN(Cc1cccc2ccccc12)C(=O)C1(C)CCCN1C (centres undefined)	4	-1
O=C(CN(C(=O)Nc1cc(C(F)(F)F)cc(C(F)(F)F)c1)C1CC1)N(Cc1ccc(F)cc1)Cc1cccs1	-13	-16
COc1ccc(CCN2C(=O)O[C@@H]3CN(C(=O)c4ccccc4)C[C@@H]32)cc1	7	4
Cc1ccccc1-n1c(SCc2ccc(C(=O)O)cc2)nnc1-c1ccco1	-4	-9
CCOC(=O)C(=O)N(C)c1c(CC)nc2c(OCc3ccc(Cl)cc3)cccn12	-1	-2
CCN1C(=O)N(CC)C2C1N(CO)C(=O)N2CO (centres undefined)	2	2
O=C(NCC(F)(F)F)c1cc(-c2ccccc2)cs1	3	0
CC(C)CCCC(C)C1CCC2C3=CC[C@H]4C[C@@H](O)CC[C@]4(C)C3CC[C@@]21C (some centres undefined)	-7	-10
CCN(CC)c1ccc(CN(C(=O)c2ccccc2F)C(C)C)c(OS(=O)(=O)c2ccc(OC)cc2)c1	0	4
O=C(NC1CCC[C@@H]1OCc1ccccc1)c1cc(-c2ccc3c(c2)OCO3)nc2ccccc12 (some centres undefined)	-1	9
COc1ccc(F)c(-c2nc(CN(C)Cc3cccc4ncccc34)c(C)o2)c1	-10	-16
C=CCC(CO)C/C(=C\I)CCCCC (centres undefined)	-3	-7
Cc1[nH]n(-c2ccccc2)c(=O)c1N=Nc1c(C)n(C)n(-c2ccccc2)c1=O	12	11
Cc1cc(C)c(-c2ccc(=O)n(CC(=O)N3CCOCC3)n2)cc1C	8	1
COc1ccc(NC(=O)N2CCN(C(C(=O)N3CCc4ccccc4C3)C3CCCC3)CC2)cc1 (centres undefined)	-6	-3
Cc1cc(C)c(C)c(C2c3c(n[nH]c3C)OC(=N)C2C#N)c1C (centres undefined)	5	2
COc1cc2oc(=O)c3c(c2cc1Cl)CCC3	-19	-24
COc1ccc(NC(=O)c2cccc(-c3ccc4c(c3)C(=O)CC3(CCN(C(C)C)CC3)O4)c2)cn1	-3	5
COc1ccc(C2=NOC(CN(Cc3cccc(C(F)(F)F)c3)C(=O)NC(C)(C)C)C2)cc1 (centres undefined)	3	10
COc1cccc(-c2cc(C(=O)N3CC(C)OC(C)C3)n(-c3cccc([N+](=O)[O-])c3)n2)c1 (centres undefined)	0	12
CS(=O)(=O)Nc1ccc(NC(=O)c2cc(Br)ccc2Cl)cc1Cl	8	0
COc1ccc(-c2nc(CSC3CCCCNC3=O)co2)cc1 (centres undefined)	-22	-21
CC(C)c1cnc2c(c1SCC(=O)Nc1ccc(OC(F)(F)F)cc1)c(=O)n(C)c(=O)n2C	8	14
O=c1[nH]c2ccccc2cc1-c1noc(-c2ccccc2)n1	9	1
CCn1c(-c2ccccc2)nn(CN2CCN(C(=O)c3ccccc3)CC2)c1=S	1	-6
Cc1ccsc1CNc1ccccc1C(=O)N1CC=CC1C(C)C (centres undefined)	-3	-7
CCCC(C#N)(CCC)NC(=O)c1cnc(-c2ncccn2)s1	1	19
O=C(c1cc(C2CC2)[nH]n1)N1CCC(C(O)c2cccs2)CC1 (centres undefined)	2	1
COc1ccc(CN2CCC(CNC(=O)C3(N)CCC3)C2)c(C)c1 (centres undefined)	-1	-7
CCOc1cc(C(OC(C)=O)OC(C)=O)ccc1OC(C)=O	4	4
CCCC(=O)NCCc1c2n(c3ccc(OC)cc13)CCCc1ccccc1-2	4	-42
COCCNc1c2c(nc3c(-c4ccccc4)c(C)nn13)CCCC2	2&3	-2&8
Cc1ccc(S(=O)(=O)N2CCCC2NC(=O)NNC(=O)c2ccncc2)cc1 (centres undefined)	-1	-3
(further entries)
SMILES	NPYLR7 agonist	NPYLR7 agonist max-min
CCOC(=O)c1ccc2nc(NC(=O)/C=C/c3ccc([N+](=O)[O-])cc3)sc2c1	5	7
CC(=O)CCC1c2coc3c4c(cc(c23)OC1(C)CCC=C(C)C)C(=O)N(C(CCC(=O)O)C(=O)O)C4 (centres undefined)	-4	-8
N#Cc1nc(N2CCCC2)nc(N2CCCC2)n1	1	-2
CCC(Oc1cccc(C(=O)OC)c1)C(=O)Nc1cc(C)on1 (centres undefined)	12	3
O=C(Nc1cccc(Cl)c1)C1CC=CCC1C(=O)N1CCc2c([nH]c3ccccc23)C1 (centres undefined)	-14	-23
CCCS(=O)(=O)N1CCCC1C(=O)NNC(=O)c1ccc2ccccc2n1 (centres undefined)	5	4
CCCCN(Cc1ccccc1F)C(=O)c1ccc(=O)[nH]c1	1	0
COc1ccc(OC)c(-c2cccc(-c3cccc(NC(=O)c4cc5ccccc5s4)c3)n2)c1	-3	5
CC1CC2CCCCC2N1C(=O)Nc1nc(C2CC2)cs1 (centres undefined)	2	0
COc1ccccc1-c1nn(CN2CCN(CCOc3ccc(Cl)cc3)CC2)c(=S)n1C	7	12
COc1ccc(CN2CCc3c([nH]c4ccccc34)C2c2cnn(C(C)C)c2)c(F)c1 (centres undefined)	7	-2
O=C(c1ccc(-n2cccn2)cc1)N(Cc1cccc(OCC2CCOC2)c1)Cc1ccccn1 (centres undefined)	5	3
COC(=O)C1=C(C)NC(=S)NC1/C=C/c1ccccc1 (centres undefined)	-1	-2
CNC(=O)CN(C(=O)COC)[C@@H]1C[C@@H]2CO[C@H](C(C)C)C[C@@H]2C1	17	13
CCC(C)N(Cc1ccc(OS(=O)(=O)CC)cc1)C(=O)c1ccc(Cl)c(Cl)c1 (centres undefined)	3	10
Cc1cccc(N2CCN(C(=O)c3c(-c4ccccc4)noc3C)CC2)c1C	-2	-3
Cc1noc(C)c1CS(=O)(=O)c1n[nH]c(C2CC2)n1	2	-2
CCC(C(=O)N(CCCOC)Cc1c(C)nn(-c2ccccc2)c1N1CCN(CC)CC1)c1ccccc1 (centres undefined)	0	1
COC(=O)c1c(NC(=O)CCl)sc(C)c1C	-4	-5
N#Cc1ccccc1COC1C[C@](OCc2cccc(Cl)c2)(C(=O)NCc2ccco2)C[C@@H](O)[C@H]1O (some centres undefined)	6	12

Whole records from above.
CC(C)CCCC(C)C1CCC2C3=CC[C@H]4C[C@@H](O)CC[C@]4(C)C3CC[C@@]21C (some centres undefined) in the list: NPYLR7 agonist = -7; NPYLR7 agonist max-min = -10
CN(C)CCN1C(=O)C(O)=C(C(=O)c2ccco2)C1c1ccccc1F (centres undefined) in the list: NPYLR7 agonist = 13; NPYLR7 agonist max-min = 16

Following part
SMILES	NPYLR7 agonist	NPYLR7 agonist max-min
CCOC(=O)C1CCN(CC(=O)N2N=C(c3ccccc3Cl)CC2c2ccccc2OC)CC1 (centres undefined)	-2	-1
CCOCCOC1CCCN(C(=O)c2ccccc2F)C1 (centres undefined)	-8	-4
Cc1ccc(CN(Cc2ccc(F)cc2)C(=O)CNC(C)(C)C)s1	-7	-15
O=C(CCN1CCC(c2nnc3ccccn23)CC1)NC1CCCCCC1	6	-3
COc1cc(C2c3c(sc(C(C)=O)c3N)N=C3CCCC(=O)C32)cc(OC)c1OC (centres undefined)	17	32
CCN(CC)CCn1c2c(c(SCC(=O)Nc3ccc(C(=O)OC)cc3)nc1=O)CCC2	-1	-2
Cn1nccc1-c1cc(C2(CNCCCN3CCOCC3)CC2)ccn1	-14	-15
Cc1cccnc1CN1CCN(Cc2cn(CCC(N)=O)c3ccccc23)CC1	7	-4
CCc1nc2n(n1)C(=O)C(C(c1cccc(C)c1)N1CCC(C(N)=O)CC1)S2 (centres undefined)	-2	-5
Cc1nc2cc(NC(=O)Cc3ccccc3)ccc2s1	-10	-16
Cc1ccc(S(=O)(=O)NCCNc2nc(-c3ccccc3)nc3cc(Cl)ccc23)cc1	15	25
COCCOc1ccccc1C(=O)NC(C)c1cc(F)ccc1F (centres undefined)	-1	-4
CCOc1ccc(NC(=O)Cn2c(-n3nc(C)cc3C)nc(C)c(CC)c2=O)cc1	6	5
COc1ccc2ccccc2c1C=NN=c1sc2ccccc2n1C	3	3
COc1ccc(-c2cc(N)n(-c3ccc(C(=O)NCCNc4cccc5ccccc45)cc3)n2)cc1	4	-5
O=C(NCc1ccccc1CN1CCCC1=O)c1cnn2cccnc12	2	1
CCC(=O)C1=C(c2ccc([N+](=O)[O-])cc2)N(C(=O)CC)n2cnnc2S1	2	-2
CCCc1[nH]n(-c2ccc(Cl)c(Cl)c2)c(=O)c1C1=C([n+]2cccc(C)c2)C(=O)N(CC2CCCO2)C1=O (centres undefined)	7	9
CNC(=O)CSc1nnc2n1CCN2c1ccccc1	-1	-1
Cc1ccc(CNS(=O)(=O)c2ccc(Cl)cc2Cl)cc1	3	5

Gathered by group: the entries above containing an NH in an aromatic ring
SMILES	NPYLR7 agonist	NPYLR7 agonist max-min
O=C(c1ccc(O)cn1)N1CCc2[nH]nc(-c3ccc(-c4ccccc4)cc3)c2C1	3	1
Cc1ccccc1CSCC(=O)Nc1c[nH]c(=O)[nH]c1=O	2	-2
COc1ccccc1-c1[nH]nc2nccc(-c3ccc(C#N)cc3)c12	3	2
Cc1[nH]n(-c2ccccc2)c(=O)c1N=Nc1c(C)n(C)n(-c2ccccc2)c1=O	12	11
Cc1cc(C)c(C)c(C2c3c(n[nH]c3C)OC(=N)C2C#N)c1C (centres undefined)	5	2
O=c1[nH]c2ccccc2cc1-c1noc(-c2ccccc2)n1	9	1
O=C(c1cc(C2CC2)[nH]n1)N1CCC(C(O)c2cccs2)CC1 (centres undefined)	2	1
O=C(Nc1cccc(Cl)c1)C1CC=CCC1C(=O)N1CCc2c([nH]c3ccccc23)C1 (centres undefined)	-14	-23
CCCCN(Cc1ccccc1F)C(=O)c1ccc(=O)[nH]c1	1	0
COc1ccc(CN2CCc3c([nH]c4ccccc34)C2c2cnn(C(C)C)c2)c(F)c1 (centres undefined)	7	-2
Cc1noc(C)c1CS(=O)(=O)c1n[nH]c(C2CC2)n1	2	-2
CCCc1[nH]n(-c2ccc(Cl)c(Cl)c2)c(=O)c1C1=C([n+]2cccc(C)c2)C(=O)N(CC2CCCO2)C1=O (centres undefined)	7	9

An excerpt. The share of hits here may be higher or lower than overall.
